Screening data from PubChem BioAssay.
RE007 growth inh – less growth of the S. pombe RE007 Vpr strain; AID 651644; S. pombe RE007 Vpr strain, BacTiter-Glo ATP luminescence, 24 h; control for the full effect not named in the record; Potency, µM (doses to about 92.2 µM), for inactives: at the top dose activity change, negative = less growth; 360,000 compounds, 0.21% hits; active = well fitted falling curve with a large enough effect; inconclusive = small, poorly fitted or top-dose-only effect; inactive = no such curve, though single readings can be large or run the other way;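 also: % is scaled to controls: 0 for no effect and ±100 for the full control effect; nearly all actives have a fitted effect of over 50% in size; the assay follows cell death caused by Vpr and the record does not say whether a fall means rescue or toxicity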
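Fission yeast RE007 carrying one integrated HIV-1 vpr copy, seeded at OD 0.01 in PMG+AL medium with 23 nL pinned compound. Grown 24 h at 30 degrees; viability read by BacTiter-Glo luminescence after 5 min.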
SARS PLP yeast – SARS-CoV PLP inhibition in yeast; Potency, µM (series often up to 32.9 µM), inactives show top-dose activity, positive = growth rescue; AID 485353; 330,000 compounds, 0.19% hits; S. cerevisiae expressing SARS-CoV PLpro, growth rescue; control for the full effect not named in the record; active means well fitted rising curve with a large enough effect; inconclusive means small, poorly fitted or top-dose-only effect; inactive means no such curve, though single readings can be large or run the other way; also: 0% is about no effect; nearly all actives have a fitted effect of over 55% in size; growth read by luminescence after 48 h
Cruzain Triton – cruzain (T. cruzi) inhibition with detergent; Potency, µM, without a hit: max response, negative = inhibition, actives largely listed as inhibitors; P25779; AID 1478; 200,000 compounds, 0.43% hits; purified cruzain, Z-FR-AMC fluorescence, 0.01% Triton;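 also: plate controls were neutral wells for no effect and buffer without enzyme for full effect; nearly all actives have a fitted effect of over 40% in size; top concentration of the series not given in the record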
Target sequence (P25779 123-467 limits assumed): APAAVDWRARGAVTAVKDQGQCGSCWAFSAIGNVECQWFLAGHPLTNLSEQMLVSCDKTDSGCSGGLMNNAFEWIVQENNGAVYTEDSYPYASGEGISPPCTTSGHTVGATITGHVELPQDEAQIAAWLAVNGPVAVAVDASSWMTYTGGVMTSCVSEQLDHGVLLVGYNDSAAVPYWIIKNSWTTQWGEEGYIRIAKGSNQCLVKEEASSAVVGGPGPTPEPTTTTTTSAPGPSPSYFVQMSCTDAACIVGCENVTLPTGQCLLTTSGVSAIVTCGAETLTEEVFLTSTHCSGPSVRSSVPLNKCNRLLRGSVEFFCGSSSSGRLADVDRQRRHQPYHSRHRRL
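Cruzain (1.5 nM) preincubated 15 min at RT with compound in 100 mM sodium acetate pH 5.5, 5 mM DTT, 0.01% Triton X-100. Reaction started with 2 uM Z-FR-AMC; AMC fluorescence (ex 360/em 450 nm) change over 60 s gave rate.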
Cruzain inh noDet – blocks cruzain activity in detergent-free assay; AID 1476; 200,000 compounds, 2.3% hits; P25779; Potency, µM, without a hit: max response, negative = inhibition, hits mostly inhibitors; purified cruzain, Z-FR-AMC fluorescence, no detergent;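 also: plate controls were enzyme without inhibitor for no effect and buffer without enzyme for full effect; nearly all actives have a fitted effect of over 40% in size; top concentration of the series not given in the record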
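Purified cruzain at 1.5 nM, pre-incubated 15 min with compound at room temperature in 100 mM sodium acetate pH 5.5, 5 mM DTT, 0.00005% Triton X-100. Reaction started with 2 uM Z-FR-AMC; AMC fluorescence increase over 60 s gives rate.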
NS1 inh – influenza NS1 inhibition; S. cerevisiae slowed by influenza A NS1, growth recovery by OD600; Potency, µM (highest dose often 46.1 µM), for inactives: at the top dose activity, positive = more growth; 270,000 compounds, 0.4% hits; AID 2326; active means well fitted rising curve with a large enough effect; inconclusive means small, poorly fitted or top-dose-only effect; inactive means no such curve, though single readings can be large or run the other way; also: nearly all actives have a fitted effect of over 50% in size
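Growth recovery, yeast-based: influenza A NS1 expressed in S. cerevisiae causes slow growth, and suppressors are detected by OD600. The parent strain without NS1 is used as positive control.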
LASV entry inh – Lassa virus entry inhibition; Lassa virus pseudotype entry inhibition, cell reporter; control for the full effect not named in the record; Potency, µM (highest dose often 37.9 µM), inactives show top-dose activity change, negative = inhibition, actives largely listed as inhibitors; 300,000 compounds, 1.2% hits; active means well fitted inhibition curve with a large enough effect; inconclusive means small, poorly fitted or top-dose-only effect, or effect the other way; inactive means flat fitted curve, though single readings scatter; tested in HEK293 cells; also: % is scaled to controls: 0 for no effect and ±100 for the full control effect; nearly all actives have a fitted effect of over 50% in size; luciferase read-out
Marburg entry inh – inhibitors of Marburg virus binding or cell entry | Marburg virus pseudotyped entry inhibition, cell reporter; control for the full effect not named in the record; about a third of the inactives were read at about 46 µM | Potency, µM (top dose mostly 37.8 µM), without a hit: top-dose activity change, negative = inhibition, actives largely listed as inhibitors | 300,000 compounds, 1.8% hits | AID 540276; active = well fitted inhibition curve with a large enough effect; inconclusive = small, poorly fitted or top-dose-only effect, or effect the other way; inactive = flat fitted curve, though single readings scatter; tested in HEK293 cells; about a fifth of its hits are not listed in these tables; also: % is scaled to controls: 0 for no effect and ±100 for the full control effect; luciferase read-out
StopGo reporter – FMDV 2A StopGo reporter, luciferase signal. human cells with a luciferase reporter of 2A StopGo recoding; control for the full effect not named in the record. 410,000 compounds, 1.2% hits. Potency, µM (doses to about 57.9 µM), for inactives: at the highest dose signal change, negative = less light. AID 1159524; active = well fitted falling curve with a large enough effect; inconclusive = small, poorly fitted or top-dose-only effect; inactive = no such curve, though single readings can be large or run the other way; tested in HEK293T cells; also: % is scaled to controls: 0 for no effect and ±100 for the full control effect; nearly all actives have a fitted effect of over 45% in size; luciferase light after 4 h
* marks the source's active call; other numbers are inactive results; ? = inconclusive; . = not tested or not shown; [ ] = dose if it differs, or a comment. Unless noted, calls follow the shape of the dose curve; as a rule, active = well fitted curve in the direction sought with a large enough effect; inconclusive = small, poorly fitted or top-dose-only effect, or another doubt; inactive = no such curve, though single readings can be large; an effect the other way counts as inactive or inconclusive. Potency is read from the fitted curve at half-maximal effect.

SMILES | RE007 growth inh | SARS PLP yeast | Cruzain Triton | Cruzain inh noDet | NS1 inh | LASV entry inh | Marburg entry inh | StopGo reporter
O=C(CN1CCOCC1)Nc1ccccc1Sc1ccc(Cl)cc1 | 2% | 1% | -9.4% | 3% | -26% | ? | ? | -28%
CCCCn1c(=O)[nH]c(=O)c2c1nc(-c1cc(Cl)c(OC)c(OC)c1)n2C | 6% | 1% | . | . | -3% | ? | ? | -20%
FC(F)(F)c1ccccc1NC1=NCCCS1 | 6% | 1% | . | . | -18% | 23% | -22%[46.1 µM] | -11%
O=C(CSc1nc(C2CCCCC2)n(-c2ccccc2)n1)NCC(F)(F)F | 2% | ? | -5.3% | 2% | -6% | 6% | ? | 2%
Cc1nc2ccccc2c(=O)n1NC(=O)c1ccc([N+](=O)[O-])cc1Cl | 1% | -5% | . | . | . | 8% | ? | -7%
COC(=O)c1c(NC(=O)C2C3C=CC(CC3)C2C(=O)O)sc(C)c1C (stereo not drawn) | . | -10% | -1.1% | -1% | -14% | -19% | ? | -20%
CCOc1ccc(S(=O)(=O)NCc2ccccn2)c(C)c1C | -7% | 11% | . | . | 6% | -13%[46.1 µM] | -6%[46.1 µM] | 8%
Cc1cc(C)cc(N(C(=O)c2cc3ccccc3oc2=O)C2C=CS(=O)(=O)C2)c1 (stereo not drawn) | -18% | -1% | -1.6% | 2% | -6% | -27% | ? | -15%
NNc1nc2sc3c(c2c(=O)n1Cc1ccccc1)CCC3 | 8% | 2% | . | . | 6% | 31% | 7%[46.1 µM] | 0%
O=C(N/N=C/c1cn(CCOc2ccccc2)c2ccccc12)c1ccncc1 | 12% | ? | -10% | ? | 26% | ? | 0% | 7%
COc1cc2nc(NC(=O)c3ccc(Cl)cc3)[nH]c(=O)c2cc1OC | -3% | . | -2.1% | 19% | -13% | -11% | -11% | -28%
CCCCC(OC(=O)c1cc2occc2n1C)C(=O)NCC1CCCO1 (stereo not drawn) | -1% | -9% | -2.0% | 12% | -5% | 2% | -12% | .
O=C(CCn1cnc2ccccc2c1=O)NCc1ccccc1Cl | . | . | -4.8% | 4% | . | -16%[46.1 µM] | . | -22%
CCOc1ccc(Br)cc1CSC(=N)N | -6% | 5% | -1.8% | 3% | -8% | ? | ? | ?
COc1ccc(NC(=O)Cn2c(-c3ccccc3)cc(C(C)=O)c2C)c(OC)c1 | 7% | 3% | . | . | . | 7% | 10%[46.1 µM] | ?
COc1ccc(NC(=O)CSC2=C(C#N)C(c3ccco3)C(C(=O)Nc3nc4ccccc4s3)=C(C)N2)cc1 (stereo not drawn) | -1% | . | . | . | . | ? | ? | -25%
NC(=O)CS(=O)C(c1ccccc1)c1ccccc1 (stereo not drawn) | . | 2% | 2.9% | 2% | . | . | . | 25%
COc1cc2nc(CSc3ncn[nH]3)[nH]c(=O)c2cc1OC | 5% | 0% | . | . | ? | 2%[46.1 µM] | 8%[46.1 µM] | 6%
Cc1ccc(/C=C/c2ccc(=O)n(Cc3ccc(F)cc3)n2)cc1 | -3% | 1% | . | . | . | ? | -9%[46.1 µM] | -22%
O=C(NCc1nnc(SCC(=O)N2CCOCC2)o1)c1ccccc1F | 29% | -1% | . | . | . | 1% | 11% | -8%
CCCCc1ccc(S(=O)(=O)NCCCN2CCCC2=O)cc1 | 10% | 4% | . | . | 10% | ? | -3% | 10%
Cc1ccc(Cl)cc1N1CCN(C(=O)CCS(=O)(=O)c2cccc3nonc23)CC1 | 9% | -17% | -5.8% | -5% | 11% | -16% | -8% | 0%
O=C(NCCN1CCOCC1)c1cc2ccccc2[nH]1 | -10% | -19% | -2.5% | -13% | 2% | 17% | ? | -11%
CCCS(=O)(=O)N1CCCC(C(=O)N2CCC3(CC2)OCCO3)C1 (stereo not drawn) | 4% | -6% | 7.5% | 6% | 0% | 4% | -1% | 11%
Cn1c(=O)n(C)c2cc(CNCCc3ccc(F)cc3)ccc21 | . | . | 0.4% | -13% | . | -5%[46.1 µM] | 5%[46.1 µM] | 2%
CCOC(=O)c1sc(NC(=O)CSC(=S)N2CCN(C)CC2)nc1C | -14% | 0% | . | . | 3% | -16% | ? | -14%
S=C(NCCc1ccccc1)N1CCCCC1 | 4% | -1% | . | . | -4% | . | . | 4%
CCOC(=O)C1CCN(C(=O)Cn2nc(C)n3nc(-c4ccc(OC)cc4)cc3c2=O)CC1 | 1% | 1% | . | . | -13% | . | . | -14%
O=C(NNS(=O)(=O)c1ccc(Cl)cc1)c1cccs1 | 2% | -1% | . | . | 4% | . | . | 63%[activator]
CC(=O)NCCc1nc2cc(NC(=O)c3ccccc3)ccc2n1C | -9% | 0% | . | . | -1% | -9%[46.1 µM] | ? | ?
O=C(COc1ccccc1[N+](=O)[O-])Nc1cccnc1 | -20% | -2% | . | . | . | ? | 11% | 47%[activator]
O=C(CSc1nnc(-c2ccccc2)o1)N1CCCCC1 | -11% | 0% | . | . | -1% | -17%[46.1 µM] | ? | 34%[activator]
CCOC(=O)c1c(NC(=O)c2cc(C(C)C)on2)sc(C)c1C | . | . | -2.3% | -11% | . | 4%[46.1 µM] | -6%[46.1 µM] | -15%
CN(CC1CCOCC1)C(=O)CC1C(=O)NCCN1CC1CCCCC1 (stereo not drawn) | 23% | -1% | . | . | 2% | 7% | -1%[46.1 µM] | -4%
O=C(Nc1ccc(F)c(Cl)c1)Nc1c[nH]c(=O)[nH]c1=O | . | . | 1.3% | -5% | . | ? | . | -22%
Cn1cc[n+](C)c1P(=S)(c1ccccc1)c1ccccc1 | 3% | -1% | . | . | 4% | . | . | -10%
Cc1ccc(C)c(Oc2c(C(F)(F)F)oc3c(CN4CCN(C)CC4)c(O)ccc3c2=O)c1 | . | . | -5.2% | 1% | . | 5%[46.1 µM] | . | -24%
COc1cc(C(=O)NCCC(=O)N2CCN(C)CC2)cc(OC)c1OC | 9% | 2% | . | . | . | 11% | 16% | -2%
Cc1[nH]n(-c2ccccc2)c(=O)c1N=Nc1ccc(Cl)cc1 | -1% | 13% | . | . | -4% | ? | 1%[46.1 µM] | -16%
COCCNC(=O)CN(C(=O)CCC(=O)Nc1cc(C)on1)c1cccc(C)c1C | 8% | 15% | 3.2% | -5% | 6% | 8% | -9% | 0%
CN(CC(=O)Nc1ccc(C(N)=O)cc1)S(=O)(=O)c1ccc2c(c1)OCCO2 | -19% | 5% | . | . | . | -5%[46.1 µM] | 9%[46.1 µM] | -20%
CCN1C(=O)CSC1=Nc1ccc(Cl)c(Cl)c1 | -14% | -3% | . | . | -58% | ? | ? | -29%
CN(C)c1ccc(/C=C2\N=C(C(C)(C)C)OC2=O)cc1 | 2% | -3% | . | . | -1% | . | . | 19%
Cc1c(CCO)c(=O)n(-c2ccccc2)n1S(=O)(=O)c1ccc(F)cc1 | 3% | -2% | 3.6% | 1% | -9% | 0% | 5% | -8%
C[N+](C)=C1SCC(C)(/C=N/O)S1 (stereo not drawn) | -24% | -1% | . | . | 8% | ? | 4% | -2%
O=C(NCCNC1CCC(c2ccccc2)CC1)c1cccs1 (stereo not drawn) | 6% | 1% | . | . | -7% | -10% | ? | -13%
CC1CN(C(=O)CCC(=O)N2CCCCC2)c2ccccc2O1 (stereo not drawn) | -6% | 4% | . | . | -1% | . | . | -4%
CC(NS(=O)(=O)c1ccccc1)c1n[nH]c(=S)n1-c1ccccc1 (stereo not drawn) | -13% | 1% | . | . | 4% | 10%[46.1 µM] | -12%[46.1 µM] | -14%
O=C(Nc1ccc(Oc2cccnc2)cc1)C1CCCCN1Cc1ccc(CO)o1 (stereo not drawn) | -9% | 0% | . | . | -2% | -21% | -2% | -1%
COc1ccc(-c2cc(=O)c3cc(OCC(=O)OC(C)C)ccc3o2)cc1 | . | . | 0.8% | ? | . | ? | 1%[46.1 µM] | 0%
Cc1ccc(S(=O)(=O)NCCC(=O)NCCSc2ccc(Br)cc2)cc1 | -5% | 0% | . | . | -19% | 1% | -1% | 2%

8 entries from above, as tab-separated lines.
Molecule	RE007 growth inh	SARS PLP yeast	Cruzain Triton	Cruzain inh noDet	NS1 inh	LASV entry inh	Marburg entry inh	StopGo reporter
CN(CC(=O)Nc1ccc(C(N)=O)cc1)S(=O)(=O)c1ccc2c(c1)OCCO2	-19%	5%	.	.	.	-5%[46.1 µM]	9%[46.1 µM]	-20%
CCN1C(=O)CSC1=Nc1ccc(Cl)c(Cl)c1	-14%	-3%	.	.	-58%	?	?	-29%
CN(C)c1ccc(/C=C2\N=C(C(C)(C)C)OC2=O)cc1	2%	-3%	.	.	-1%	.	.	19%
Cc1c(CCO)c(=O)n(-c2ccccc2)n1S(=O)(=O)c1ccc(F)cc1	3%	-2%	3.6%	1%	-9%	0%	5%	-8%
C[N+](C)=C1SCC(C)(/C=N/O)S1 (stereo not drawn)	-24%	-1%	.	.	8%	?	4%	-2%
O=C(NCCNC1CCC(c2ccccc2)CC1)c1cccs1 (stereo not drawn)	6%	1%	.	.	-7%	-10%	?	-13%
CC1CN(C(=O)CCC(=O)N2CCCCC2)c2ccccc2O1 (stereo not drawn)	-6%	4%	.	.	-1%	.	.	-4%
CC(NS(=O)(=O)c1ccccc1)c1n[nH]c(=S)n1-c1ccccc1 (stereo not drawn)	-13%	1%	.	.	4%	10%[46.1 µM]	-12%[46.1 µM]	-14%

Rows were taken by chance (roughly 4.7% active in at least one column).
